Screens as filed in PubChem BioAssay.
LANA-nucl inh: LANA-nucleosome interaction inhibition | FITC-LANA1-23 / chicken nucleosome fluorescence polarization; active compounds read low | AID 720717 | z-score (test concentration not listed) | 51,000 compounds, 0.3% hits;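 active means both repeat wells score below -2 in polarization z-score versus plate sample wells, excluding overly bright wells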;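 further: 100 nL library stock added to about 30 µL; numbers are from one replicate; some results filed as inactive read as strong as hits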
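test system = FITC-LANA peptide and chicken nucleosomes | amount = 240 nM purified chicken nucleosomes (480 nM peptide binding sites), final | reagent = 50 nM FITC-LANA1-23 probe | medium = TEN-BT buffer, pH 7.5 | doses = single compound addition by pin transfer, 100 nL per well | timing = 10–45 min, room temperature | detection = fluorescence polarization | repeats = duplicate plates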
BasE inh: BasE siderophore biosynthesis inhibition | 84,000 compounds, 0.1% hits | AID 485350 | inhibition, % (concentration not given with the values) | purified BasE, fluorescence polarization binding displacement;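 active means both replicates above 25% with normal brightness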;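 further: 0% = negative plate control signal and 100% = positive plate control signal; stock transfer was 100 nL into about 30 µL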
Active calls of the source: *; . = not tested or not shown; & = joins results of further samples. An excerpt; the hit share may differ from the screen's.

A first look, five compounds:
SMILES	LANA-nucl inh	BasE inh
Cc1cc(C)n(C(=O)CNc2ccccc2Cl)n1	-0.471	0.7
O=C(NC12CC3CC(CC(C3)C1)C2)c1cccnc1	.	2.1
O=C(c1nnc(Cc2ccc(F)cc2Cl)o1)N1CCN(c2ccccn2)CC1	0.367	0.7
CC1=C(C(=O)N2CCOCC2)C(c2cc(Cl)ccc2OC(F)F)n2c(nc3ccccc32)N1 (stereo not given)	-0.389	0.3
CCCOc1ccccc1C1NC(=O)NC(C)=C1C(=O)OCC1CCCCC1 (stereo not given)	-1.16	2.9

This part in full, from the first entry:
SMILES	LANA-nucl inh	BasE inh
Cc1cc(C)n(C(=O)CNc2ccccc2Cl)n1	-0.471	0.7
O=C(NC12CC3CC(CC(C3)C1)C2)c1cccnc1	.	2.1
O=C(c1nnc(Cc2ccc(F)cc2Cl)o1)N1CCN(c2ccccn2)CC1	0.367	0.7
CC1=C(C(=O)N2CCOCC2)C(c2cc(Cl)ccc2OC(F)F)n2c(nc3ccccc32)N1 (stereo not given)	-0.389	0.3
CCCOc1ccccc1C1NC(=O)NC(C)=C1C(=O)OCC1CCCCC1 (stereo not given)	-1.16	2.9
O=C1C2CC=CCC2C(=O)N1CCc1nc(-c2ccccc2)no1 (stereo not given)	-0.858	0.4
O=C(OCc1ccccc1)c1ccc(O)cc1	-1.28	0.6
O=C1CCCN1c1ccc(S(=O)(=O)Nc2c(NC3CCCCC3)c3ccccc3oc2=O)cc1	0.599	-2.3
O=C(O)CC1C(=O)NN=C2c3ccccc3N=CN21 (stereo not given)	.	7.9
Nc1nc(Br)c2c(F)cccc2c1-c1ccccc1	0.141	.
CN(NS(=O)(=O)c1ccc(Cl)cc1)c1cnn(C)c(=O)c1Cl	.	2.1
CC12CC(c3ccccc3O1)C(S(=O)(=O)c1ccccc1)C(=O)N2 (stereo not given)	1.9	-1.7
O=C(O)CCN(Cc1ccccc1)S(=O)(=O)c1cccs1	.	-0.4
Cn1c(=O)c2ccccc2n2c(CN3C(=O)NC4(CCCc5sccc54)C3=O)nnc12 (stereo not given)	.	-1.2
C=CCSC1=C(C#N)C(c2ccccc2C)CC(=O)N1 (stereo not given)	.	1.4
COc1ccc(C(=O)O)s1	-0.95	0.8
COC(=O)CN(c1ccccc1)S(=O)(=O)c1ccc(C)cc1	.	1.9
N#CCn1ccn(-c2cccc3ccccc23)c(=O)c1=O	-2.23	0.2
NC(=S)c1ccc(C(F)(F)F)cc1Cl	.	-0.9
O=c1c2ccccc2cnn1-c1ccc(F)cc1F	.	0.1
CC(CC(=O)NCc1ccccc1)n1cccn1 (stereo not given)	-1.05	0.9
S=C(NCCSc1nnnn1-c1ccccc1)Nc1ccccc1	-0.978	0.8
CCCCNS(=O)(=O)c1ccc(OCC(N)=O)cc1	-0.052	1.2
CC1CCc2c(sc(NC(=O)CN3C(=O)CCC3=O)c2C(N)=O)C1 (stereo not given)	0.423	1.8
Cc1cc(=O)oc2cc(OC(C)C(=O)Nc3nnc(C4CCCO4)s3)ccc12 (stereo not given)	0.776	2.3
Oc1ccccc1-c1noc(-c2ccccc2O)n1	0.175	0.2
CCCCn1ccnc1C(=O)c1cccc(S(=O)(=O)N2CC(C)CC(C)C2)c1 (stereo not given)	.	1.9
COc1ccc(S(=O)(=O)NNC(N)=S)cc1	0.255	-0.6
CC(C)c1ccc(/C=C2\CSc3ccccc3C2=O)cc1	.	-2.5
CCOc1ccc(NC(C)=O)cc1	-0.119&0.44&0.212	-1.2&-2.3
O=C(Nc1ccc(F)cc1)[C@@H]1CCCN1S(=O)(=O)c1ccc(Cl)cc1	.	-0.1
CCN1C(=O)/C(=C\c2ccc(-c3ccc(Cl)c(C(=O)O)c3)o2)SC1=S	8.55	-21.5
CCn1cnc2ccc(N3Cc4ccccc4C3=N)cc21	.	-5.0
N#C/C(=C\c1ccccc1)C(=O)Nc1cccc2c(=O)[nH][nH]c(=O)c12	.	1.3
O=C(Nc1cc(Cl)cc(Cl)c1)N1CCN(C2c3ccccc3-c3ccccc32)CC1	-0.19	.
N#Cc1ccc(C=NCCN2CCNC2=O)cc1	.	3.0
CCOc1ccc(/C=C(\NC(=O)c2ccccc2)C(=O)NC)c2ccccc12	.	1.7
NS(=O)(=O)c1ccc(NC(=O)C2CCCNC2=O)cc1 (stereo not given)	.	1.4
COc1ccccc1CNC(=O)CO/N=C/c1cccs1	.	2.2
COc1cccc(C(=O)NC(C)(C)C)c1OC	2.54	-0.9

A portion of the results above:
SMILES	LANA-nucl inh	BasE inh
CCN1C(=O)/C(=C\c2ccc(-c3ccc(Cl)c(C(=O)O)c3)o2)SC1=S	8.55	-21.5
CCn1cnc2ccc(N3Cc4ccccc4C3=N)cc21	.	-5.0

Further compounds.
SMILES	LANA-nucl inh	BasE inh
Cn1cnnc1Sc1ccc(Cl)cc1NC(=O)c1cc(=O)[nH]c2ccccc12	.	1.3
Cc1ccc(C)c(NC(=S)N(C)C)c1	-0.711	0.4
O=C1NC(=Nc2cccc(Cl)c2Cl)S/C1=C/c1ccco1	1.91	0.1
O=c1nc2ccccn2c2c1c(=O)[nH]c1ccccc12	1.74	-5.3
Cc1csc(=O)n1CC(=O)OCC(=O)Nc1ccccc1	.	-1.2
CC(Sc1nnc(Nc2ccccc2F)s1)C(=O)Nc1ccccc1 (stereo not given)	.	1.3
c1cc(N2CCOCC2)ccc1NC1=NCCS1	0.016	.
CCCCCC(=O)Nc1ccc(C(=O)COC(=O)c2cccnc2N2CCCC2)cc1	.	4.4
CC(=O)NC(C)c1nc2ccccc2n1CC(=O)Nc1cccc(C)c1C (stereo not given)	.	0.7
COc1cccc(S(=O)(=O)Nc2ccc(C(=O)N3CCN(C(=O)c4ccco4)CC3)cc2)c1	-0.925	-0.3
Cn1cccc1CNC1CCCCCCC1	0.267	1.6
CCCC(C(=O)Nc1nccs1)c1ccccc1 (stereo not given)	.	-2.7
Nc1nnnn1/N=C/c1ccccc1O	0.122	6.0
O=C(NCCCN1CCCC1=O)Nc1ccc(Cl)cc1	0.269	-1.2
CC1CCN(S(=O)(=O)c2cccc(C(=O)N3CCN(c4ccc(F)cc4)CC3)c2)CC1	1.56	-1.0
CCN=c1scc(-c2ccc(OC)cc2)n1/N=C(\C)c1ccc(C)o1	.	-5.6
O=C(NCCc1ccccc1)c1ncn[nH]1	0.537	-1.6
N=c1n(Cc2ccccc2)c2ccccc2n1CC(O)c1ccccc1 (stereo not given)	.	0.0
CC1CCc2cc(F)ccc2N1C(=O)c1cc(S(=O)(=O)N2CCCC2)cn1C (stereo not given)	1.37	-0.6
Cn1c(NC(=O)C2CC2)cc(=O)n(C)c1=O	-1.45	2.3
O=c1[nH]nc2n1-c1ccccc1SC2	-0.0955	5.0
CSC1=NCCN1CCOc1ccccc1	-1.02	0.3
CC(NC(=S)Nc1ccc(S(N)(=O)=O)cc1)c1ccc2c(c1)OCO2 (stereo not given)	-1.06	-3.6
O=C(Nc1cccc(C(F)(F)F)c1)Nc1ccc2c(c1)OCO2	.	1.7
COC(=O)c1ccccc1NC(=O)C(F)(F)F	-0.55	.
O=C(NN1CCOCC1)c1ccccc1NS(=O)(=O)c1ccc(F)cc1F	.	2.6
CC(C)c1ccc(S(=O)(=O)N2CCN(C(=O)n3ccnc3)CC2)cc1	.	1.1
CCC(C)NC(=O)C1COc2ccccc2O1 (stereo not given)	-0.262	6.8
O=C1CCCC2=C1C(c1ccc(N3CCOCC3)cc1)c1c([nH]c(=O)[nH]c1=O)N2 (stereo not given)	.	1.6
Cc1cccc(N(C)C(=O)Cn2ncc3c(=O)oc4ccccc4c32)c1	0.84	1.0
CC(C)(C)c1ccc(CC/C=N/O)cc1	1.51	-2.7
O=C1CCCC/C1=C/Nc1ccc2c(c1)OCO2	0.01	0.5
O=C1CC(c2ccccc2)n2nc(N3C(=O)CCC3=O)nc2N1 (stereo not given)	.	1.5
CCC(=O)N1N=C(c2ccc(OC)cc2)CC1c1ccccc1O (stereo not given)	.	-0.9
Cc1cc(C(O)C(F)(F)F)c(C)n1CC(C)C (stereo not given)	.	-7.4
CC12CCC(c3c(C(F)(F)F)nc(N)nc31)C2(C)C (stereo not given)	.	0.2
CCOC(=O)c1nc(NCc2cccnc2)c2ccccc2n1	-0.001	-4.1
CC1=NN(C(=O)c2ccccc2)C(C)(O)C1(C)C (stereo not given)	-0.558	1.2
O=c1ccc(Cc2ccccc2Br)n[nH]1	-0.994	.
CN(CC(=O)Nc1sccc1C#N)Cc1ccccc1	.	2.5
CCCNCc1nnc(-c2ccco2)o1	.	2.9
COc1ccccc1-c1nnc(SC(C)c2nc3ccccc3c(=O)[nH]2)n1C (stereo not given)	.	-0.7
c1ccc(CC2CCN(Cc3nnc(-c4ccc5c(c4)OCO5)o3)CC2)cc1	-0.756	-0.8
CC(C)CNC(=O)C1CC(=O)N(Nc2ccccc2)C1 (stereo not given)	.	1.7
O=C(C1CCN(S(=O)(=O)c2ccc3[nH]c4c(c3c2)CCCCC4)CC1)N1CCCC1	.	-5.6
COC(=O)c1ccc(OC)cc1OC(=O)COc1cccc(C)c1	.	2.5
N#C/C(=N\Nc1ccccc1)C(=O)C1CC1	-0.378	3.6
CCCn1nc(C(=O)N/N=C/c2ccc(O)cc2)c2ccccc2c1=O	.	1.1
Cc1ccc(NC(=O)c2cc(N(C)C)ccc2[P+](=O)O)cc1	.	1.9
CCCCCn1c(=O)c2ccccc2n2c(CN3C(=O)c4ccccc4C3=O)nnc12	.	3.1
Cc1cc(C)c(NC(=S)NC(=O)c2ccccc2)c(C)c1	.	1.0
CCCCCC(=O)c1ccc(O)cc1O	0.047	0.2
CCN1CCCC1CNc1ncnc2onc(-c3ccc(F)cc3)c12 (stereo not given)	.	-1.8
C/C(CCc1ccc2c(c1)OCO2)=N\N=C1/NC(=O)CC(C(=O)O)S1 (stereo not given)	-0.401	2.9
CCOC(=O)c1cc2c(ccn2-c2ccc(F)cc2)n1CC(=O)N1C(C)CCCC1C (stereo not given)	-0.946	-1.6
Cc1[nH]c(=S)[nH]c1Cc1ccccc1	.	-0.1
O=C(CSc1n[nH]c(-c2ccc(Br)cc2)n1)N1CCCC1	.	0.0
COc1cc(Cl)ccc1NC(=S)N(CCCN1CCOCC1)C1CCN(C(C)=O)CC1	0.768	-2.4
O=C(O)c1cccc(-n2cccc2)c1	-0.692	6.0
O=C(Nc1ccccc1Cl)C1CCC1	.	0.9
Following part
SMILES	LANA-nucl inh	BasE inh
Cc1ccccc1C(=O)NC(=S)N1CCC(C)CC1	-0.0175	3.9
O=C(NOC(=O)c1cccs1)c1ccccc1	0.379	-0.8
CCn1c(C)cc2c(c1=O)C(C(C)C)C(C#N)=C(N)O2 (stereo not given)	-0.32	0.5
C/C(=C\C(=O)c1ccccc1)Nc1ccc(N2CCOCC2)cc1	-0.704	3.8
CCOC(=O)c1cncc(C#CCOC(=O)c2ccc(Cl)cn2)c1	.	-0.1
CC(=O)OC(C(=O)NC1CCCCC1)c1ccccc1 (stereo not given)	-0.675	0.8
Cc1ccc(/C=C/C(=O)OC(C)C(N)=O)o1 (stereo not given)	.	1.5
CCC1CCCCN1C(=O)c1cnn(-c2ccc(C)cc2)c1-n1cccc1 (stereo not given)	-0.121	-2.7
C=CCNC(=S)Nn1c(C)nnc1-n1nc(C)cc1C	.	1.8
N#CCSc1nc(-c2ccccc2)c(-c2ccccc2)o1	.	-1.1
CC1CCCCN1C(=O)CSc1nnc(C2CCCCC2)o1 (stereo not given)	-1.32	-1.2
O=C1C=C(SCC(=O)c2ccccc2)SC(c2ccc(Cl)cc2)C1 (stereo not given)	.	1.7
N#C/C(=C\c1ccc(C2=CCOc3ccccc32)s1)S(=O)(=O)c1ccccc1	.	-2.4
CCOC(=O)N1CCN(CC(O)COc2c(OC)cccc2OC)CC1 (stereo not given)	.	2.1
CC(Oc1ccccc1)C(=O)N1CCN(C(=O)C(C)Oc2ccccc2)CC1 (stereo not given)	-1.05	1.1
N#Cc1cccc(C#N)c1Sc1ccc(Cl)cc1	.	0.4
COc1ccc(N2CCN(CNC(=O)c3ccccc3)CC2)cc1	0.217	1.4
CCC(C)C(NC(N)=O)C(=O)Nc1ccc(S(=O)(=O)Nc2ccc(OC)cc2)cc1 (stereo not given)	.	-4.7
COCCCN1C(=O)CC(Nc2ccc(N(C)C)cc2)C1=O (stereo not given)	0.306	3.5
COc1cccc([C@H]2Nc3ccc(S(=O)(=O)Nc4ccc(C)c(C)c4)cc3[C@H]3C=CC[C@H]32)c1OC	.	2.2
O=C(O)CCNc1ncnc2sc3c(c12)CCCC3	.	1.0
CCc1ccc(Nc2cc(C(=O)N3CCOCC3)c3ccccc3n2)cc1	.	0.4
Nc1cccc(-c2nc3ccccc3s2)c1	0.142	-0.1

Another view of part of the listing above:
N#C/C(=C\c1ccc(C2=CCOc3ccccc32)s1)S(=O)(=O)c1ccccc1
  LANA-nucl inh: .
  BasE inh: -2.4
CCOC(=O)N1CCN(CC(O)COc2c(OC)cccc2OC)CC1 (stereo not given)
  LANA-nucl inh: .
  BasE inh: 2.1
CCc1ccc(Nc2cc(C(=O)N3CCOCC3)c3ccccc3n2)cc1
  LANA-nucl inh: .
  BasE inh: 0.4

7 structures from above, sorted by molecular weight, high to low.
SMILES	LANA-nucl inh	BasE inh
CCc1ccc(Nc2cc(C(=O)N3CCOCC3)c3ccccc3n2)cc1	.	0.4
O=C1NC(=Nc2cccc(Cl)c2Cl)S/C1=C/c1ccco1	1.91	0.1
COC(=O)c1ccc(OC)cc1OC(=O)COc1cccc(C)c1	.	2.5
Nc1nc(Br)c2c(F)cccc2c1-c1ccccc1	0.141	.
CCCCNS(=O)(=O)c1ccc(OCC(N)=O)cc1	-0.052	1.2
Cc1ccc(C)c(NC(=S)N(C)C)c1	-0.711	0.4
Cc1[nH]c(=S)[nH]c1Cc1ccccc1	.	-0.1
